NS1 inh = qHTS Assay for Inhibitors of Influenza NS1 Protein Function; S. cerevisiae slowed by influenza A NS1, growth recovery by OD600; Potency, µM (top dose mostly 46.1 µM), without a hit: top-dose activity, positive = more growth; 0.4% of 270,000 active; active means well fitted rising curve with a large enough effect; inconclusive means small, poorly fitted or top-dose-only effect; inactive means no such curve, though single readings can be large or run the other way; also: nearly all actives have a fitted effect of over 50% in size
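Growth recovery, yeast-based: influenza A NS1 expressed in S. cerevisiae causes slow growth, and suppressors are detected by OD600. The parent strain without NS1 is used as positive control.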
Cruzain inh Det = qHTS Assay for Promiscuous and Specific Inhibitors of Cruzain (with detergent); Cruzipain (Trypanosoma cruzi), P25779; purified cruzain, Z-FR-AMC fluorescence, 0.01% Triton; Potency, µM, inactives show max response, negative = inhibition, actives largely listed as inhibitors; 0.43% of 200,000 active; AID 1478, 2009;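 also: plate controls were neutral wells for no effect and buffer without enzyme for full effect; nearly all actives have a fitted effect of over 40% in size; top concentration of the series not given in the record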
Target sequence (P25779 123-467 limits assumed): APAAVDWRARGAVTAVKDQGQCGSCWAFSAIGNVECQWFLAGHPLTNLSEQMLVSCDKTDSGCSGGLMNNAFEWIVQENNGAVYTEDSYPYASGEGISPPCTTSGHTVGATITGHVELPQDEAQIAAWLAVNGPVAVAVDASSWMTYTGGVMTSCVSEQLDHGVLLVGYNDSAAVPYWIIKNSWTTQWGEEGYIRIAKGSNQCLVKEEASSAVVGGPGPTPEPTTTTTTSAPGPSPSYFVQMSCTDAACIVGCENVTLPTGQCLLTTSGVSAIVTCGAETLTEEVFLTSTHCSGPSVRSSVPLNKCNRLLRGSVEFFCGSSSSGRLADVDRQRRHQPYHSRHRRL
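Read-out: AMC fluorescence (360 nm excitation, 450 nm emission), four reads over 2 min, first-to-third difference used. Conditions: cruzain 1.5 nM, Z-FR-AMC 2 uM, pH 5.5 acetate, 5 mM DTT, 0.01% Triton X-100.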
SARS PLP yeast = qHTS of Yeast-based Assay for SARS-CoV PLP; Potency, µM (doses to about 32.9 µM), for the others: at the highest dose activity, positive = growth rescue; AID 485353, 2010; 0.19% of 330,000 active; S. cerevisiae expressing SARS-CoV PLpro, growth rescue; control for the full effect not named in the record; active means well fitted rising curve with a large enough effect; inconclusive means small, poorly fitted or top-dose-only effect; inactive means no such curve, though single readings can be large or run the other way; also: 0% is about no effect; nearly all actives have a fitted effect of over 55% in size; growth read by luminescence after 48 h
MARV entry inh = qHTS for inhibitors of binding or entry into cells for Marburg Virus | Marburg virus pseudotyped entry inhibition, cell reporter; control for the full effect not named in the record; about a third of the inactives were read at about 46 µM | Potency, µM (series often up to 37.8 µM), for the others: at the top dose activity change, negative = inhibition, most hits filed as inhibitors | 1.8% of 300,000 active; active = well fitted inhibition curve with a large enough effect; inconclusive = small, poorly fitted or top-dose-only effect, or effect the other way; inactive = flat fitted curve, though single readings scatter; tested in HEK293 cells; about a fifth of its hits are not listed in these tables; also: % is scaled to controls: 0 for no effect and ±100 for the full control effect; luciferase read-out
Lassa entry inh = qHTS for Inhibitors of binding or entry into cells for Lassa Virus; Lassa virus pseudotype entry inhibition, cell reporter; control for the full effect not named in the record; Potency, µM (doses to about 37.9 µM), for the others: at the highest dose activity change, negative = inhibition, actives largely listed as inhibitors; 1.2% of 300,000 active; active means well fitted inhibition curve with a large enough effect; inconclusive means small, poorly fitted or top-dose-only effect, or effect the other way; inactive means flat fitted curve, though single readings scatter; tested in HEK293 cells; also: % is scaled to controls: 0 for no effect and ±100 for the full control effect; nearly all actives have a fitted effect of over 50% in size; luciferase read-out
Cruzain inh noDet = qHTS Assay for Promiscuous and Specific Inhibitors of Cruzain (without detergent); Cruzipain (Trypanosoma cruzi), P25779; purified cruzain, Z-FR-AMC fluorescence, no detergent; Potency, µM, for the others: max response, negative = inhibition, usual class: inhibitors; 2.3% of 200,000 active;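 also: plate controls were enzyme without inhibitor for no effect and buffer without enzyme for full effect; nearly all actives have a fitted effect of over 40% in size; top concentration of the series not given in the record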
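Purified cruzain at 1.5 nM, pre-incubated 15 min with compound at room temperature in 100 mM sodium acetate pH 5.5, 5 mM DTT, 0.00005% Triton X-100. Reaction started with 2 uM Z-FR-AMC; AMC fluorescence increase over 60 s gives rate.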
RE007 growth inh = qHTS Assay for Inhibitors of the HIV-1 protein Vpr; 0.21% of 360,000 active; S. pombe RE007 Vpr strain, BacTiter-Glo ATP luminescence, 24 h; control for the full effect not named in the record; Potency, µM (doses to about 92.2 µM), without a hit: at the highest dose activity change, negative = less growth; active = well fitted falling curve with a large enough effect; inconclusive = small, poorly fitted or top-dose-only effect; inactive = no such curve, though single readings can be large or run the other way;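 also: % is scaled to controls: 0 for no effect and ±100 for the full control effect; nearly all actives have a fitted effect of over 50% in size; the assay follows cell death caused by Vpr and the record does not say whether a fall means rescue or toxicity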
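Fission yeast strain RE007, carrying one chromosomally integrated HIV-1 vpr copy, was seeded at OD 0.01 in PMG+AL medium with 23 nL pinned compound. After 24 h at 30 °C and 99% humidity, viability was read by BacTiter-Glo luminescence.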
2A StopGo = High Throughput Screening for Foot and Mouth Disease Virus Antivirals; human cells with a luciferase reporter of 2A StopGo recoding; control for the full effect not named in the record; Potency, µM (titrated, usually from 57.9 µM), without a hit: at the highest dose signal change, negative = less light; 1.2% of 410,000 active; active = well fitted falling curve with a large enough effect; inconclusive = small, poorly fitted or top-dose-only effect; inactive = no such curve, though single readings can be large or run the other way; tested in HEK293T cells; also: % is scaled to controls: 0 for no effect and ±100 for the full control effect; nearly all actives have a fitted effect of over 45% in size; luciferase light after 4 h
Numbers without * were called inactive; ? = inconclusive; / = no result given; & = joins results of further samples; [ ] = dose if it differs, or a comment. Unless noted, calls follow the shape of the dose curve; as a rule, active = well fitted curve in the direction sought with a large enough effect; inconclusive = small, poorly fitted or top-dose-only effect, or another doubt; inactive = no such curve, though single readings can be large; an effect the other way counts as inactive or inconclusive. Potency is read from the fitted curve at half-maximal effect. The order is random; overall some 4.7% were active at least once.

SMILES	NS1 inh	Cruzain inh Det	SARS PLP yeast	MARV entry inh	Lassa entry inh	Cruzain inh noDet	RE007 growth inh	2A StopGo
Cc1cc(NS(=O)(=O)c2ccc(NC(=O)C(C(C)C)N3C(=O)c4ccccc4C3=O)cc2)nc(C)n1 (stereo not given)	-13.6%	-0.3%	0.5%	9.1%	20.2%	?	-9.6%	/
Cc1ccc2cc(CCNC(=O)CCCc3ccccc3)c(=O)[nH]c2c1	-9.0%	/	-2.4%	/	/	/	2.0%	-16.9%
COc1ccc2c(c1)CCc1sc(NC(=O)c3ccc(Br)cc3)nc1-2	/	-4.7%	/	/	-9.9%[46.1 µM]	?	/	?
O=C(Nc1nccs1)c1cccc(NC(=O)C2CC2)c1	7.6%	-1.3%	0.3%	-1.8%	15.5%	-1.8%	-6.2%	/
Cc1ccccc1NC(=O)[C@H](CSCc1ccccc1)N1Cc2ccccc2C1=O	/	0.0%	/	-16.0%[46.1 µM]	-26.3%[46.1 µM]	0.9%	/	6.4%
O=C(NC(=S)N1CCc2ccccc21)C1CCC1	12.0%	/	0.5%	-0.9%[46.1 µM]	0.9%	/	20.1%	31.4%[activator]
COc1ccc(NC(=O)CCS(=O)(=O)c2ccc3c(c2)NC(=O)C(C)S3)cc1OC (stereo not given)	-6.8%	/	7.2%	/	/	/	4.0%	-27.0%
CC(=O)NC(CC(=O)NNC(=O)c1cc2ccccc2cc1O)c1ccccc1 (stereo not given)	-12.8%	/	2.8%	/	/	/	-2.7%	-3.1%
CCOc1ccccc1CNC(=O)C1CCN(C2=NS(=O)(=O)C(c3ccc(C)c(C)c3)=C2C)CC1	/	-4.3%	/	/	-2.9%[46.1 µM]	4.6%	/	-22.0%
CCN(CCCNC(=O)CN(C)S(=O)(=O)c1cccc2nsnc12)c1cccc(C)c1	-8.0%	-1.8%	3.1%	-3.8%&-3.8%	?	-14.1%	-0.5%	-3.5%
Cc1cccc(C)c1OCCOC(=O)c1n[nH]c2ccccc12	2.0%	/	-12.7%	?	-27.3%[46.1 µM]	/	-1.5%	-6.2%
CC1CCC(=O)N(CCC#N)CC1 (stereo not given)	-0.2%	/	9.5%	/	/	/	-22.3%	-12.0%
CC1(C)CC(NCc2ccncc2)CC(C)(C)N1	-1.5%	/	0.8%	11.5%[46.1 µM]	0.7%	/	-3.2%	2.0%

Record cards (already shown).
CCOc1ccccc1CNC(=O)C1CCN(C2=NS(=O)(=O)C(c3ccc(C)c(C)c3)=C2C)CC1 across the screens: NS1 inh = /; Cruzain inh Det = -4.3%; SARS PLP yeast = /; MARV entry inh = /; Lassa entry inh = -2.9%[46.1 µM]; Cruzain inh noDet = 4.6%; RE007 growth inh = /; 2A StopGo = -22.0%
Cc1ccccc1NC(=O)[C@H](CSCc1ccccc1)N1Cc2ccccc2C1=O across the screens: NS1 inh = /; Cruzain inh Det = 0.0%; SARS PLP yeast = /; MARV entry inh = -16.0%[46.1 µM]; Lassa entry inh = -26.3%[46.1 µM]; Cruzain inh noDet = 0.9%; RE007 growth inh = /; 2A StopGo = 6.4%
O=C(NC(=S)N1CCc2ccccc21)C1CCC1 across the screens: NS1 inh = 12.0%; Cruzain inh Det = /; SARS PLP yeast = 0.5%; MARV entry inh = -0.9%[46.1 µM]; Lassa entry inh = 0.9%; Cruzain inh noDet = /; RE007 growth inh = 20.1%; 2A StopGo = 31.4%[activator]

Bioassay records: PubChem BioAssay, National Center for Advancing Translational Sciences (NCATS)
